Compound activity: PubChem BioAssay, several laboratories
Bead autofluor = counter-screen for toxin protease inhibitors: compound fluorescence; fluorescence intensity (no concentration beside the values); compound autofluorescence counterscreen, microsphere flow cytometry; hits give high values; 360,000 compounds, 3.1% hits;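 active = at least 3 SD above the mean of all compounds, about 16000 in these data; inconclusive = too few beads counted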;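 note: 100 nL of 1 mM stock went into each well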
BJeLR lethal = MLPCN primary cell-based screen for lethality selective to Ras in HRASV12 cells; BJeLR (HRASV12) viability, CellTiter-Glo ATP luminescence, 48 h; reference of the scale not given here; 300,000 compounds, 0.17% hits; inhibition, % (concentration not given with the values);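 active = replicate mean above 50%; inconclusive = above 50% but judged a plate artefact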;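 note: 50 nL library stock added to about 25 µL; numbers are from one replicate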
PrP UTR inh = inhibition of PrP 5' UTR reporter expression | cell-based PrP 5' UTR mRNA reporter, plate reader | inhibition, % (no concentration beside the values) | AID 488862, 2010 | 340,000 compounds, 0.35% hits;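 active = every replicate at 50% or more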;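 note: 0 = median of the neutral control wells; tested in H4 reporter cells; numbers are from one replicate; inactives centre near -14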
Sa RN4220 lethal = growth inhibition of S. aureus RN4220, primary screen, OD600; inhibition, % (concentration not given with the values); 330,000 compounds, 0.33% hits; 16 h;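 active = z-score of -3 or lower and OD600 up to 0.18 on both plates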;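 note: plate controls were untreated cells for no effect and reference antibiotic for full effect; stock transfer was 100 nL into about 80 µL; one replicate is shown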
Mtb hypoxia inh = PubChem AID 1159583; fluorescence inhibition, % (test concentration not listed); M. tuberculosis hypoxia-regulated fluorescent reporter, fluorescence; 300,000 compounds, 0.1% hits;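 active = 35 to 45% if threefold the growth effect, above 45% if 1.5-fold the growth effect; inactive = the rest, general growth blockers included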;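 note: wells of about 50 µL received 100 nL stock; 0% = vehicle wells and 100% = reference inhibitor wells; whole bacteria with a GFP reporter of the hypoxia response; strong numbers were not always called active; many hits fall short of the cut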
Sa ugtP lethal = growth inhibition of ugtP-null S. aureus, primary screen, RN4220 ugtP deletion, OD600 | growth inhibition, % (no concentration beside the values) | 16 h; some inactives read as strong as hits | 330,000 compounds, 0.54% hits | AID 1259309, 2017;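 active = z-score under -3 and OD600 up to 0.15 on both plates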;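 note: plate controls were untreated wells for no effect and antibiotic for full effect; wells of about 80 µL received 100 nL stock; the first replicate is given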
Mtb hypoxia inh growth = second read-out of Mtb hypoxia inh, no call of its own (marks repeat the call); growth inhibition, %; measured here: M. tuberculosis growth (absorbance);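 0% = vehicle and 100% = reference antibiotic; read after six days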
The depositor's hits bear a star; ? = inconclusive; . = no result given.

SMILES	Bead autofluor	BJeLR lethal	PrP UTR inh	Sa RN4220 lethal	Mtb hypoxia inh	Mtb hypoxia inh growth	Sa ugtP lethal
CCOc1cccc(C(=O)Nc2cc(C)ccc2NC(=O)c2ccco2)c1	6951	-11	-8	7.0	11	13	-2
Cc1nn(CC(=O)c2ccc(Cl)s2)c(C)c1[N+](=O)[O-]	4812	11	-27	-0.4	7	-5	9
COCCN(C(=O)c1cc(S(=O)(=O)N2CCCCC2)ccc1Cl)c1c(N)n(CC(C)C)c(=O)[nH]c1=O	5834	.	-4	0.0	-9	-2	-1
COc1ccc(Cl)cc1NC(=O)CC(C)=O	4225	13	-25	0.9	.	.	-4
CCCc1ccc(-c2csc(NC(=O)C3=COCCO3)n2)cc1	3527	.	-73	-2.8	1	3	56
O=C(NCCNC(=O)c1ccco1)c1ccc(Cl)c(Cl)c1	3817	0	-16	5.0	-6	4	2
COc1ccc(C2C(C(=O)c3ccco3)=C(O)C(=O)N2CC2CCCO2)c(OC)c1 (configuration not stated)	4054	-7	-39	2.8	7	4	1
Cc1ccc(Oc2ccc(S(=O)(=O)N3CCOCC3)cc2C(N)=O)c(-n2nc3ccccc3n2)c1	2326	21	-8	-7.9	.	.	-8
CCOc1ccc(NC(=O)CN(C)C(=O)C2CC(=O)N(CCc3ccccc3)C2)cc1OCC (configuration not stated)	?	3	-4	1.0	-4	-2	1
O=C(CSc1nnc(-c2ccc3c(c2)OCO3)o1)Nc1ncc(C(F)(F)F)cc1Cl	4094	-3	-20	75	3	8	97*
COC(=O)Nc1ccc(S(=O)(=O)N(C)C)cc1	20816*	7	-58	1.7	0	3	3
CCCOc1ccc(C2C(C(=O)c3ccco3)=C(O)C(=O)N2CCCn2ccnc2)cc1 (configuration not stated)	4074	0	-29	-0.1	4	2	5
COc1cc(C(=O)N2CCN(C)CC2)cc(OC)c1OC	3616	11	-18	1.9	-5	2	7
CCOC(=O)COc1ccc(S(=O)(=O)N2CCN(c3ccc(OC)cc3)CC2)cc1	6058	-1	-18	4.3	5	1	9
COc1cc(C(=O)Nc2ccc(F)cc2Cl)ccc1OCC(=O)N1CCOCC1	4594	-5	-13	4.2	13	2	-3
O=C(Nc1cccc(Cl)c1)c1nc[nH]c1C(=O)NCc1ccccc1	3076	.	-9	-2.4	14	10	-7
COc1cc2[nH]c(=O)n(Cc3ccc(C(=O)N4CCC(N5CCCCC5)CC4)cc3)c(=O)c2cc1OC	5312	3	-20	0.4	9	8	3
O=C(C=C(O)c1ccccc1)C(=O)NNC(=O)c1ccccc1	.	.	.	2.1	3	2	-4
CC(C)(C)c1cc[n+](-c2[nH]c(=O)sc2C=N/N=C(\[O-])c2cccnc2)cc1	.	.	.	5.1	10	5	-2
Cc1ccccc1NS(=O)(=O)c1ccc(NC(=O)c2ccco2)cc1	3157	3	-6	2.1	.	.	-10

One compound at a time, from the list above. Screens in order: Bead autofluor | BJeLR lethal | PrP UTR inh | Sa RN4220 lethal | Mtb hypoxia inh | Mtb hypoxia inh growth | Sa ugtP lethal
Cc1ccc(Oc2ccc(S(=O)(=O)N3CCOCC3)cc2C(N)=O)c(-n2nc3ccccc3n2)c1 in the list: 2326 | 21 | -8 | -7.9 | . | . | -8
O=C(NCCNC(=O)c1ccco1)c1ccc(Cl)c(Cl)c1 in the list: 3817 | 0 | -16 | 5.0 | -6 | 4 | 2
COc1cc(C(=O)Nc2ccc(F)cc2Cl)ccc1OCC(=O)N1CCOCC1 in the list: 4594 | -5 | -13 | 4.2 | 13 | 2 | -3
Cc1ccccc1NS(=O)(=O)c1ccc(NC(=O)c2ccco2)cc1 in the list: 3157 | 3 | -6 | 2.1 | . | . | -10

Next results follow:
SMILES	Bead autofluor	BJeLR lethal	PrP UTR inh	Sa RN4220 lethal	Mtb hypoxia inh	Mtb hypoxia inh growth	Sa ugtP lethal
CC(C)CC(=O)Nc1nnc(S(=O)(=O)N2c3ccccc3CC2C)s1 (configuration not stated)	5522	10	2	5.5	2	-6	2
CCCc1ccc(C(=O)[C@@H]2[C@@H](C(C)=O)N3c4ccc(F)cc4C=C[C@@H]3[C@@]23C(=O)Nc2ccccc23)cc1	4768	12	4	3.9	-7	1	1
COc1ccc(C(=O)N/N=C/c2c(C)[nH]c(=O)[nH]c2=O)cc1	4426	3	-19	.	.	.	.
COc1ccc(OCC(=O)NCCC2=CCCCC2)c([N+](=O)[O-])c1	2587	-7	-6	4.4	0	-10	1
O=C(NN=Cc1ccccn1)c1ccc(NC(=O)c2cccc([N+](=O)[O-])c2)cc1	.	.	.	0.5	-2	-1	12
COc1ccc(NC(=O)CSc2nc(=O)n(CCN3CCOCC3)c3c2CCCC3)c(OC)c1	6064	11	-9	.	.	.	.
Cc1ccc(CN2CC(C(=O)Nc3cc(C)ccn3)CC2=O)cc1 (configuration not stated)	?	-7	-57	3.6	3	3	-1
CC(C)(C)Cc1nc(-c2ccc(Cl)cc2)no1	21458*	-10	-39	-0.5	-14	-1	2
COC(=O)N1[C@H](Cc2ccccc2)C=C[C@]1(C)C(=O)NCc1ccccn1	3966	-3	-10	.	.	.	.
O=C(O)CN1C(=O)CN=C(c2ccccn2)c2cc(Cl)ccc21	3119	6	-1	0.3	11	0	0
COC(=O)C(CCSC)NC(=O)Cn1ncc2c(=O)oc3ccc(C)cc3c21 (configuration not stated)	6665	-1	-19	-4.8	5	10	-5
COc1cc(/C=C(/C#N)C(=O)Nc2ccc(Cl)cc2)ccc1Oc1nc(Cl)ncc1F	?	7	-37	-1.3	-11	5	-5
C/C(=N/NC(=O)c1ccoc1C)c1cccc(NC(=O)C(F)(F)F)c1	2520	-4	-10	.	.	.	.
O=C(NCCN1C(=O)S/C(=C/c2ccccc2)C1=O)C1CC(=O)N(Cc2ccccc2)C1 (configuration not stated)	.	.	-14	7.0	-1	3	3
COc1ccc2c(CC(=O)NNC(=O)c3ccccc3F)coc2c1	2954	.	4	0.1	0	1	-3
COc1ccc(OC)c(Nc2ccc(C(=O)O)cc2[N+](=O)[O-])c1	2339	1	-16	7.3	16	1	2
O=S(=O)(c1ccccc1)N1N=C(c2cccs2)CC1c1ccc(F)cc1 (configuration not stated)	4083	-3	-16	4.8	11	4	-2
CCCCOc1ccc(C(=O)NCC2(c3ccccc3)CCOCC2)cc1	22415*	8	9	-0.3	-9	0	4
CCCN(CCC)C(=O)CSc1nc2ccsc2c(=O)n1NC(=O)c1ccccc1	?	-9	-20	15	10	7	3
COc1ccccc1N1CCN(C(=O)c2cc(=O)c3cc(C)ccc3o2)CC1	3756	8	-23	1.9	6	5	5
Cc1ccc(C)c(C(=O)CSc2nnc(C)s2)c1	4536	10	-53	3.5	5	10	3
CCOc1ccccc1CNCCN1CCOCC1	10179	-2	.	1.5	-3	2	-1
C#CCOCCOCCOCCNc1nc(N2CCOCC2)nc(N2CCN(C(=O)C(CCCCN)n3cc(C(N)CC(C)C)nn3)CC2)n1 (configuration not stated)	.	.	.	0.8	7	7	-11
CCOC(=O)c1cc(C#N)c(Oc2cccc(C(F)(F)F)c2)nc1-c1ccccc1	2655	-5	2	-1.2	.	.	2
Cc1ccc(SCC(=O)OCC(=O)N(C)CC(=O)Nc2ccccc2Cl)cc1	?	13	4	.	.	.	.
COc1ccc(NC2(c3ccc(Cl)cc3)C(=O)c3ccccc3C2=O)cc1	3224	-6	-13	-12	8	-2	-12
O=C(CCN1C(=O)c2cccc([N+](=O)[O-])c2C1=O)Nc1nccs1	4129	12	-8	1.4	5	2	2
COc1cc2c(cc1OC)-c1cc(Nc3ccc(F)cc3)nc(=O)n1CC2	2839	0	8	2.5	8	0	2
Cc1cc(C(=O)NCc2ccco2)on1	5978	-1	-12	6.3	6	2	17
CCOc1ccc(NC(=O)Nc2ccon2)cc1	5927	20	-52	4.2	12	6	4
CN1CCN(CCCNC(=O)c2cn(C)c3ccc(S(=O)(=O)N(C)C)cc3c2=O)CC1	5424	.	-48	2.2	.	.	5
CCOc1ccc(S(=O)(=O)NC2=NCCCCC2)cc1	3941	.	6	4.2	-2	5	2
CCN(CC)c1ccc(N=Cc2c(O)n(Cc3ccco3)c(=O)[nH]c2=O)cc1	5022	2	-14	2.1	-4	2	2
CCOc1cc(C=O)cc(Cl)c1OCC(N)=O	2151	-8	-30	2.6	10	2	1
O=C1NC(=O)C(CCc2ccccn2)(Cc2cccc(Cl)c2Cl)C(=O)N1c1ccc(Br)cc1 (configuration not stated)	2038	1	4	7.9	7	2	-19
O=C(O)c1cccc(N/N=C/C2=C(Cl)c3cc(Cl)ccc3SC2)c1	4302	0	-123	.	.	.	.
Cc1nnc(N2C(=O)c3cccc4c([N+](=O)[O-])ccc(c34)C2=O)s1	3975	23	-16	4.6	-2	5	6
COC(=O)C(=NNc1ccccc1)N1CCCc2ccccc21	.	.	.	-6.0	5	0	0
O=C(OCC(=O)N1CCCC1=O)c1ccc(F)c(S(=O)(=O)N2CCOCC2)c1	4875	2	-16	0.8	1	-10	7
CCN(CC(=O)NCc1ccco1)S(=O)(=O)c1ccc(OC)cc1	?	7	-12	3.9	1	-11	8
CCN(C1CCS(=O)(=O)C1)S(=O)(=O)c1ccc(OC)c(OC)c1 (configuration not stated)	?	-3	-15	2.1	5	-7	5
O=C(NC1CCCC1)c1cc(-c2ccc(Cl)cc2Cl)on1	5402	7	-46	4.0	9	1	7
Cc1ccc(CNC(=O)CN2C(=O)COc3ccc(S(=O)(=O)N4CCCCC4)cc32)o1	4186	1	8	5.3	3	-11	9
CCOC(=O)N1CCN(CCC(=O)Nc2ccc(Br)c(C)c2)CC1	4205	10	-21	3.1	-9	0	-4
CCCc1ccc(S(=O)(=O)NN=Cc2ccc3c(c2)OCO3)cc1	.	.	.	-1.2	12	11	0
O=C(c1ccc(F)cc1)n1cc(C(=S)N2CCOCC2)c2ccccc21	3660	-8	-15	4.2	3	9	-5
COc1ccc(C=C2C(=O)OC(C)(C)OC2=O)cc1OC	2998	-8	-26	.	.	.	.
Cc1cc(C(=O)NCCCN(C)C)c2ccccc2n1	4758	4	-19	2.2	-10	3	-7
Cc1ccc(C(=O)Nc2c(C)cc(-c3ccccc3)oc2=O)cc1	4256	-2	-39	0.5	9	3	4
O=C(CCC1COc2ccccc2O1)Nc1cccnc1 (configuration not stated)	23308*	-8	-30	-0.5	4	6	-2
CN(CC(=O)Nc1ccccc1Cl)C(=O)CSC(=S)N1CCCC1	3988	8	-21	2.3	0	4	4
CN(C)C(=O)COc1ccc(C(=O)/C=C/c2cccnc2)cc1	3463	-8	-15	5.6	8	6	1
CCCCC(=O)Nc1ccc(C(=O)NCCN2CCOCC2)cc1	4241	-6	17	2.1	-1	-4	2
C=C(C)CSc1nc(N)c2c(C)c(C)sc2n1	7253	-4	-117	1.7	8	2	8
COc1ccc(Cl)cc1Nc1nc(C)cc(C)c1C(N)=O	2637	-1	-3	1.4	.	.	1
CCCCCNC(=O)CCCCn1c(=O)[nH]c2cc(OCC)c(OCC)cc2c1=O	4282	-5	3	0.8	7	5	2
CC(C)(C)c1ccc(C(=O)N2CCN(S(=O)(=O)c3ccc(Br)s3)CC2)cc1	5820	.	-16	-3.7	-1	0	-3
Cc1nnc(NC(=O)C2COc3ccccc3O2)s1 (configuration not stated)	10224	-7	-31	2.7	-1	4	7
O=C1CC(N2CCSCC2)C(=O)N1CCc1ccccc1 (configuration not stated)	.	3	-21	1.3	.	.	1
COc1ccccc1N(CC(=O)N(C)Cc1ccccc1)S(=O)(=O)c1cccs1	3985	.	-21	2.2	4	7	-2

Continuation.
SMILES	Bead autofluor	BJeLR lethal	PrP UTR inh	Sa RN4220 lethal	Mtb hypoxia inh	Mtb hypoxia inh growth	Sa ugtP lethal
CCOc1cc(/C=C2/NC(=S)NC2=O)ccc1OCc1ccc([N+](=O)[O-])cc1	2386	-2	3	-0.8	.	.	-8
Cn1c(Cc2ccccc2)n[nH]c1=S	3318	-3	-1	5.0	14	5	4
Cc1ccc2[nH]c3c(c2c1)CN(C)CC3	2435	14	-9	-6.7	6	-3	-2
CCS(=O)(=O)N1CCCC(C(=O)NCc2ccc(C)cc2)C1 (configuration not stated)	3336	-10	-15	4.0	3	7	2
Cc1cc(=O)oc2c(C)c(OCC(=O)N3CCC(C(=O)O)CC3)ccc12	4024	7	-23	-0.7	.	.	-8
COCCN(C(C)=O)c1nnc(-c2cnccn2)s1	3609	-5	-14	-0.3	.	.	3
CCOC(=O)c1c(CN(C)C)n(-c2ccccc2)c2cc(Br)c(OC)cc12	2429	7	-1	-5.1	6	-6	-6
Cc1cc(C)cc(N(CC(=O)Nc2cccc(C)n2)S(=O)(=O)c2c(C)noc2C)c1	5570	5	-2	.	.	.	.
